MT1-MMP promoter = inhibitors of MT1-MMP promoter transcription, cell-based, luciferase reporter, luminescence (AID 618); MT1-MMP promoter luciferase reporter cells, luminescence; calls from a first round at 10 µM; hits with a dose series show EC50 in µM; 87,000 compounds, 0.62% hits;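 active means over half of the reporter light lost at 10 µM or EC50 under 50 µM; inactive means the rest and hits that failed the dose series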;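 further: actives suppress MT1-MMP promoter-driven transcription so potencies describe inhibitors; HT1080 fibrosarcoma cells; overnight exposure; toxic or luciferase-blocking compounds were not removed from the actives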
Hsc70 ATP site = Hsc70 inhibitors, probe displacement, primary screen, biochemical, fluorescence polarization (AID 568). Heat shock cognate 71 kDa protein (Homo sapiens). Hsc70 fluorescence polarization, probe displacement; higher % means a stronger effect; strong numbers were not always called active. one-dose displacement, % at 20 µM; IC50 in µM for titrated hits. 83,000 tested, under 10 active;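 active means displacement above 50% without optical interference and an IC50 on retest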;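 further: ATPase domain with a fluorescein-tagged ATP probe; 0% = vehicle and 100% = excess ADP; read after one hour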
WNV NS2B-NS3 inh = inhibitors of WNV NS2B-NS3 protease, primary screen, biochemical, fluorogenic substrate; fluorogenic substrate Ex360/Em465; stronger effect = lower value; z-score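 (tested at a level between 10 and 100 µM)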; 65,000 compounds, 0.18% hits; AID 577, 2007;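 active means z-score at -3 or under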;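 further: score is relative to mean and spread of the compound wells of a plate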
Target sequence (P06935 1371-1501 limits assumed): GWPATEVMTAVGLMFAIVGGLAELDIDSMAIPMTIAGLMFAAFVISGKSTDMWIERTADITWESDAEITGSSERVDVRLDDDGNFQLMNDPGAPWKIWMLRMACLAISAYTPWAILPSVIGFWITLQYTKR
Target sequence (P06935 1502-1679 limits assumed): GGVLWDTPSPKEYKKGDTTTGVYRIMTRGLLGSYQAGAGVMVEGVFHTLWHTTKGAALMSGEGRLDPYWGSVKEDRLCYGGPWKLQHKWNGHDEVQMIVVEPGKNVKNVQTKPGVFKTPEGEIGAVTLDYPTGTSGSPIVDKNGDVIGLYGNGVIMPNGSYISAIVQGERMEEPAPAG
* = called active by the depositor; i = inactive; nt = no result given.

SMILES	MT1-MMP promoter	Hsc70 ATP site	WNV NS2B-NS3 inh
O=C(c1ccc2c(=O)n(Cc3ccco3)c(=S)[nH]c2c1)N1CCN(c2ccccc2)CC1	i	0.8%	-0.62
CCOc1ccccc1C(=O)Nc1cc(Cl)ccc1O	i	3.0%	-0.78
Cc1cc(-n2c(=O)c(C#N)cc3c(=O)n4ccccc4nc32)no1	i	15%	6.8
CCN(CC)C(=O)CSc1ncnc2c1cnn2-c1ccccc1	i	4.4%	nt
O=c1[nH]n2c(=O)c3c([nH]c2c1N=Nc1cccc(Cl)c1)CCCC3	i	3.7%	nt
O=C(Nc1nccs1)c1ccc2nccnc2c1	i	1.0%	0.23
O=C(C1CC1)N1CCc2[nH]c3ccccc3c2C1	i	2.0%	nt
Cc1cccc(OCc2nnc(SCn3nnc4ccccc4c3=O)o2)c1	i	5.3%	-0.88
Cc1cccc(NCc2cc(Cl)ccc2O)n1	i	1.3%	nt
COC(=O)/C=C1\NCCSC1=O	i	3.3%	-0.71
O=C(Nc1nc2c(s1)CCCC2)Oc1ccccc1	i	0.8%	0.26
Clc1ccc(-n2nnnc2-c2cnc(-c3ccccn3)nc2-c2cccs2)cc1	i	-2.5%	nt
O=C(Cn1cnc2c(nnn2-c2ccc(F)cc2)c1=O)NCC1CCCO1 (stereo unspecified)	i	-5.6%	0.18
Cc1csc(NC(=O)CSc2nnc(-c3ccoc3C)n2CCc2ccccc2)n1	i	0.2%	-1.2
Cc1ccc(OCCC(=O)OCC(=O)C(C)(C)C)cc1	i	-3.0%	0.64
CCOn1c(=O)c(-c2ccc(Cl)cc2)[n+]([O-])c2ccccc21	i	-1.4%	nt
COc1ccc(S(=O)(=O)N2CCC(C(=O)NCc3cccc(OC)c3)CC2)cc1	i	-7.7%	0.13
Cc1onc(-c2ccccc2)c1C(=O)N1CCN(C(=O)c2ccco2)CC1	i	0.9%	-0.11
CC(C)(CNC(=O)C1CCCC1)CNC(=O)C1CCCC1	i	-3.3%	-1
COc1ccc(Cl)cc1N(CC(=O)N1CCN(Cc2ccccc2)CC1)S(C)(=O)=O	i	-1.1%	0.12
O=C(CSc1ncn(-c2ccccc2)n1)Nc1nc2c(s1)CCCC2	i	-7.2%	0.05
CN(C)c1ccc(/C=C/c2ccncc2)cc1	i	-81%	0.83
CCN(CC)S(=O)(=O)c1cc(C)c(C)cc1Br	i	7.8%	-0.31
COC(=O)c1ccccc1NC(=O)CN(c1cc(OC)ccc1OC)S(C)(=O)=O	i	2.5%	nt
CC(=O)N1CCc2cc(S(=O)(=O)NC(Cc3ccccc3)C(=O)Nc3cc(C)ccn3)ccc21 (stereo unspecified)	i	-5.2%	nt
Cc1ccc2c(C)c(C(=O)Nc3c(C)n(C)n(-c4ccccc4)c3=O)oc2c1	i	-2.2%	-0.4
CN(C)c1ccc(C2N(C(=O)N3CCOCC3)CCN2S(=O)(=O)c2ccccc2)cc1 (stereo unspecified)	i	-1.5%	0.7
CC(OC(=O)C1CCCO1)C(=O)NC1CCCC1 (stereo unspecified)	i	-3.1%	1.3
O=c1[nH]nc(Cc2ccc3ccccc3n2)c2ccccc12	i	-3.2%	nt
COC(=O)CNC(=O)C(C)(C)Oc1ccc(Cl)cc1	i	-0.7%	nt
COc1ccc(C2N(C(=O)N3CCOCC3)CCN2S(=O)(=O)c2ccc(C)cc2)cc1 (stereo unspecified)	i	-3.3%	nt
O=C(CSc1nnnn1-c1ccccc1)NCc1cccs1	i	-2.0%	nt
COC(=O)c1cc2c(ccn2-c2ccc(F)cc2)n1CC(=O)N1CCN(C(=O)c2ccco2)CC1	i	-4.3%	-0.29
O=C(C1CCC(N2C(=O)C3CC=CCC3C2=O)CC1)N1CCCCC1 (stereo unspecified)	i	-5.6%	0.21
CCOC(=O)C1=C(C)NC(=O)NC1c1ccc(OCC(=O)N2CCCCC2)cc1 (stereo unspecified)	i	0.2%	-0.65
COCCCn1c(=S)[nH]c2ncccc2c1=O	i	-2.3%	-0.41
Cc1cccc2cc(COC(=O)C3CCCO3)c(=O)[nH]c12 (stereo unspecified)	i	1.9%	-0.08
CCCCNc1nc2ccccc2[nH]1	i	1.7%	nt
CCCNS(=O)(=O)c1ccc(OCC(=O)NCc2ccc3c(c2)OCO3)cc1	i	1.2%	-0.16
CCOc1ccc(C(=O)NCc2ccccn2)cc1	i	11%	-0.55
CN(Cc1cccs1)CC(O)COCc1ccco1 (stereo unspecified)	i	-4.8%	-1
CCC(=O)N1c2ccccc2-c2nnc(SC)nc2OC1c1ccc(OC)c(OC)c1 (stereo unspecified)	i	1.6%	0.66
C=COC(=O)CSc1nc(-c2cccs2)ccc1C#N	i	-16%	0.32
CCOC(=O)N1CCN(C(=O)c2ccc(N(C)S(C)(=O)=O)cc2)CC1	i	-5.1%	-1
CC(=O)OC1=C(C#N)Cn2ccc3cccc1c32	i	6.5%	-0.34
CCc1nnc2n1N=C(c1ccc(-c3cc(Cl)ccc3Cl)o1)CS2	i	-9.1%	0.04
c1ccc2sc(Cc3nnc4n3CCCCC4)nc2c1	i	1.7%	-0.75
Cn1c(O)c(C=Nc2ccc(Cc3ccncc3)cc2)c(=O)n(C)c1=O	i	3.1%	0.27
CC(C)[C@H](NC(=O)C1(c2ccccc2)CCN(C(=O)OC(C)(C)C)CC1)C(=O)O	i	-0.6%	0.42
Cc1cc(N2CCC(C(=O)NCC3CC3)CC2)nc(-c2ccccc2)n1	i	2.4%	-0.16

Limited to WNV NS2B-NS3 inh, for 2 of the compounds above:
Compound	WNV NS2B-NS3 inh
CCc1nnc2n1N=C(c1ccc(-c3cc(Cl)ccc3Cl)o1)CS2	0.04
c1ccc2sc(Cc3nnc4n3CCCCC4)nc2c1	-0.75

Entries from the list above that have fluorine (2):
SMILES	MT1-MMP promoter	Hsc70 ATP site	WNV NS2B-NS3 inh
O=C(Cn1cnc2c(nnn2-c2ccc(F)cc2)c1=O)NCC1CCCO1 (stereo unspecified)	i	-5.6%	0.18
COC(=O)c1cc2c(ccn2-c2ccc(F)cc2)n1CC(=O)N1CCN(C(=O)c2ccco2)CC1	i	-4.3%	-0.29

Back to the main list; the 7 compounds before the break are reprinted first.
SMILES	MT1-MMP promoter	Hsc70 ATP site	WNV NS2B-NS3 inh
CCOC(=O)N1CCN(C(=O)c2ccc(N(C)S(C)(=O)=O)cc2)CC1	i	-5.1%	-1
CC(=O)OC1=C(C#N)Cn2ccc3cccc1c32	i	6.5%	-0.34
CCc1nnc2n1N=C(c1ccc(-c3cc(Cl)ccc3Cl)o1)CS2	i	-9.1%	0.04
c1ccc2sc(Cc3nnc4n3CCCCC4)nc2c1	i	1.7%	-0.75
Cn1c(O)c(C=Nc2ccc(Cc3ccncc3)cc2)c(=O)n(C)c1=O	i	3.1%	0.27
CC(C)[C@H](NC(=O)C1(c2ccccc2)CCN(C(=O)OC(C)(C)C)CC1)C(=O)O	i	-0.6%	0.42
Cc1cc(N2CCC(C(=O)NCC3CC3)CC2)nc(-c2ccccc2)n1	i	2.4%	-0.16
Fc1ccc(C2CC(c3ccc(F)cc3)n3ncnc3N2)cc1 (stereo unspecified)	i	-2.9%	-1.5
Cc1noc(C)c1COC(=O)CCc1ccc(S(=O)(=O)N2CCCCC2)cc1	i	1.7%	0.23
Cc1cccc(Cn2cnc3c(nnn3Cc3ccc(Cl)cc3)c2=O)c1	i	0.9%	0.05
CCOC(=O)CCP(=O)(O)C(O)c1ccc(OC)cc1 (stereo unspecified)	i	-2.0%	-0.54
Cc1ccc(SC(C)C(=O)NCC(C)C)cc1 (stereo unspecified)	i	-2.8%	-2.4
COc1ccc(OCC(=O)Nc2ccc(S(=O)(=O)N3CCOCC3)cc2)cc1	i	-2.8%	-0.52
Cc1cc(-n2c(C)cc(C(=O)CN3C(=O)NC4(CCCCCC4)C3=O)c2C)no1	i	-1.1%	0.97
Cc1sc(NC(=O)CSc2nnc3scc(-c4ccccc4)n23)c(C#N)c1C	i	-7.3%	-1.2
COc1ccc(-n2c(=O)[nH]cc(C(=O)N3CCCc4ccccc43)c2=O)cc1	i	-1.0%	-0.33
COCCCn1c(-c2ccccc2)nc2ccccc2c1=O	i	1.3%	0.51
CC(C)C1N=C2c3ccccc3N=C(SCC#N)N2C1=O (stereo unspecified)	i	-0.5%	0.89
O=C1c2ccccc2NC(c2ccc(Cl)cc2Cl)N1O (stereo unspecified)	i	-0.7%	-1.4
O=C(NCCN1C(=O)C2C3C=CC(C3)C2C1=O)Nc1ccccc1 (stereo unspecified)	i	-3.7%	-0.45
O=C1c2ccccc2C(=O)N1CC1c2ccccc2CCN1C(=O)N1CCOCC1 (stereo unspecified)	i	-0.1%	-0.88
COc1ccccc1N1CCN(C(=O)c2sc3nc(-c4ccccc4)cn3c2C)CC1	i	-5.3%	-0.9
O=C(CCc1ccccc1)Nc1nc2nc(-c3ccccc3)cc(=O)n2[nH]1	i	-4.1%	-0.03
COCc1cc(C)nc2sc(C(=O)Nc3nccs3)c(N)c12	i	3.1%	0.09
c1ccc(-c2ccc(CN3CCN(c4ncccn4)CC3)cc2)cc1	i	-0.2%	0.05
O=C(Nc1ccc(F)cc1F)c1cc2ncc(Br)cn2n1	i	0.7%	0.88
Cc1cc(C)c2nc(C(F)(F)F)nc(NCCCN3CCCC3=O)c2c1	i	5.8%	-1.1
O=C(N/N=C/c1ccc(N2CCOCC2)o1)c1cccc(C(F)(F)F)c1	i	-1.8%	nt
CC(=O)c1ccc(N2CCN(C(=O)COc3ccccc3F)CC2)c(F)c1	i	-4.4%	nt
CCCCn1cnc2cc(NCc3ccncc3)ccc21	i	4.3%	-0.09
Cc1ccc(-c2nnc3sc(C4COc5ccccc5O4)nn23)cc1 (stereo unspecified)	i	-5.6%	-0.0014
COC(=O)c1ccc(CSc2nc(N)cc(N)n2)cc1	i	3.0%	0.28
CCS(=O)(=O)NCCCc1ccccc1	i	0.8%	-0.45
Cc1cc(C)c(S(=O)(=O)N2CCCC(C(=O)NCCC3=CCCCC3)C2)c(C)c1 (stereo unspecified)	i	6.0%	nt
CCOC(=O)Cc1nnc(NC(=O)CSc2nncn2C)s1	i	0.4%	0.23
Cc1ccc(-n2c(-c3ccncc3)nnc2-c2cccs2)cc1	i	0.4%	0.01
C=C(C)CSc1nc(C)c(Cc2ccccc2)c(=O)[nH]1	i	2.4%	-1.2
Cc1ccc(C)n1NC(=O)c1ccccc1O	i	0.2%	nt
COc1ccc(Cc2nc(-c3ccc(NC(=O)c4cccnc4)cc3)no2)cc1	i	1.4%	-1
CCOC(=O)c1[nH]c2ccc(OCC)cc2c1NC(=O)CN1CCCC(C)C1 (stereo unspecified)	i	-0.1%	0.91
O=C(Nc1ccc2oc(=O)ccc2c1)c1cccnc1Cl	i	-3.2%	nt
CC(C)(C)c1csc(NC(=O)c2cccs2)n1	i	1.5%	-0.03
CCOC(=O)/C=C1\CC(=O)Nc2nonc2N1	i	-0.9%	0.27
O=C1C2CC=CCC2C(=O)N1c1n[nH]c(Cc2ccccc2)n1 (stereo unspecified)	i	2.2%	1.1
Cc1cc(NC(=O)CSc2nnc3c(C)cc4cc5c(cc4n23)OCO5)no1	i	3.1%	-0.94
CCCn1c(=O)c(C(=O)Nc2c(C)n(C)n(-c3ccccc3)c2=O)c(O)c2ccccc21	i	-1.7%	-0.8
Cn1nccc1C(=O)OCC(=O)Nc1nc(-c2ccccc2)cs1	i	0.5%	0.22
Cc1coc2cc3oc(=O)c4c(c3cc12)CCC4	i	0.9%	-0.44
O=C(NCCCN1CCN(c2ccccc2F)CC1)C1CCCN(S(=O)(=O)c2cnc[nH]2)C1 (stereo unspecified)	i	0.1%	-0.22
CCOc1ccc(-c2n[nH]c(C)c2-c2ccccc2OC)c(O)c1	i	1.6%	-0.96
CCCCOC(=O)c1ccc(NC(C)=O)cc1	i	-1.5%	0.11
Cc1nc2c3c(-c4ccccc4)c(-c4ccccc4)oc3ncn2n1	i	3.2%	-1.1
CC1(C)Cc2ccccc2C(NNC(=O)c2ccccn2)=N1	i	-1.3%	nt
O=C(O)C1CC1C(=O)N1CCN(c2ccc(Cl)c(Cl)c2)CC1 (stereo unspecified)	i	3.2%	nt
O=C(NCC(=O)N(CCc1ccccc1)C(C(=O)NC1CCCC1)c1cccnc1)c1ccco1 (stereo unspecified)	i	2.1%	-0.05
COc1ccccc1Cc1nnnn1CC(=O)O	i	0.8%	nt
Cc1csc(SCC(=O)c2c(N)n(C)c(=O)n(C)c2=O)n1	i	13%	nt

Further compounds
SMILES	MT1-MMP promoter	Hsc70 ATP site	WNV NS2B-NS3 inh
O=C(CSc1nnc(-c2ccc(Cl)s2)o1)N1CCc2ccccc21	i	-0.9%	-1
COc1ccc(C(=O)NCCN2CCOCC2)cc1OC	i	2.3%	nt
CC(C)CNS(=O)(=O)c1ccc(CCC(=O)N2CCN(Cc3ccc4c(c3)OCO4)CC2)cc1	i	-2.7%	-0.25
Cc1ccc(-c2nc(C#N)c(N3CCCCC3)o2)cc1	i	0.7%	0.93
CCCCN(C)C(=O)Cn1cnc2sc(C)cc2c1=O	i	-2.3%	-0.87
CCN(CC)CCN1C(=O)C(O)=C(C(=O)c2ccco2)C1c1ccccn1 (stereo unspecified)	i	-4.8%	-0.45
COc1cc2c(cc1OC)CN(C(=O)C1(c3ccccc3)CC1)CC2	i	4.4%	2.5
CCCOc1ccc(N2C(=O)CC(NCCNc3ccc(S(=O)(=O)CC)cc3)C2=O)cc1 (stereo unspecified)	i	-6.2%	-0.04
O=C(O)C1C2C=CC(O2)C1C(=O)Nc1ccc(S(=O)(=O)Nc2ccccc2)cc1 (stereo unspecified)	i	-1.2%	-0.02

Screening data deposited in PubChem BioAssay by several laboratories.
